hNpr1 antagonist: Natriuretic polypeptide receptor (hNpr1) antagonism - Primary qHTS; Atrial natriuretic peptide receptor 1 (Homo sapiens), P16066; HEK293 hNpr1 GloSensor cGMP, ANP-stimulated luminescence; Potency, µM (doses to about 46.3 µM), for inactives: at the top dose activity change, negative = inhibition, most hits filed as inhibitors; hit rate 1.6% among 76,000; active = well fitted inhibition curve with a large enough effect; inconclusive = small, poorly fitted or top-dose-only effect; inactive = no such curve, though single readings can be large or run the other way;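 further: nearly all actives have a fitted effect of over 60% in size; nearly all hits also lower the signal before the agonist is added; a reference antagonist and vehicle were the controls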
Target sequence (P16066 whole entry, looked up): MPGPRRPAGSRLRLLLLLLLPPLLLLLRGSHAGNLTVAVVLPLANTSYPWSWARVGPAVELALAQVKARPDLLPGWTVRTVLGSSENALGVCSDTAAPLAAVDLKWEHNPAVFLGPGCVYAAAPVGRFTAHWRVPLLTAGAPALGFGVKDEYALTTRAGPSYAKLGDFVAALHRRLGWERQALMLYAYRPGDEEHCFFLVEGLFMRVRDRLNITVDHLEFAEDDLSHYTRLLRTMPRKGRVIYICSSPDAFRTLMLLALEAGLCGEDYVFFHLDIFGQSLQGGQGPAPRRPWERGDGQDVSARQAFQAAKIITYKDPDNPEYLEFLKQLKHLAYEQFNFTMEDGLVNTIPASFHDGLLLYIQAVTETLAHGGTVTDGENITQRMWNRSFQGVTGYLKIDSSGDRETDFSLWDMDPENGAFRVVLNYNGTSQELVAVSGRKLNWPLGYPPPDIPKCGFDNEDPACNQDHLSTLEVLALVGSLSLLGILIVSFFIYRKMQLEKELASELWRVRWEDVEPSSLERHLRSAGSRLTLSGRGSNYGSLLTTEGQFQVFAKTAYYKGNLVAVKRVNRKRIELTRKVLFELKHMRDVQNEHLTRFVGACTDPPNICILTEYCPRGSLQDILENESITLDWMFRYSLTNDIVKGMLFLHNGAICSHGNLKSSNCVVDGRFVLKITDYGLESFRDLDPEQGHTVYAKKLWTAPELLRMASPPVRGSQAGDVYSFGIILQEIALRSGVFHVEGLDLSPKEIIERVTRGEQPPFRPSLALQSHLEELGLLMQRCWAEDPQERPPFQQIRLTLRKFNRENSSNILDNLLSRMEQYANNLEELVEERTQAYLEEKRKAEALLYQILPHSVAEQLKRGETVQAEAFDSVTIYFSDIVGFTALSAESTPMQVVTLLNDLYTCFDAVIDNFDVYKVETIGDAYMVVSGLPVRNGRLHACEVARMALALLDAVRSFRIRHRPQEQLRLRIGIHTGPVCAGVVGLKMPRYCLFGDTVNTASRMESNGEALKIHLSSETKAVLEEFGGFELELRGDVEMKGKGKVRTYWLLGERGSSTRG
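Compound pre-incubated 30 min at room temperature on GloSensor-loaded HEK293 cells stably carrying hNpr1 and the pGS-40F cGMP biosensor. Stimulation uses hNppA at 0.1 nM final; luminescence is taken at baseline and 20 min post-agonist.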
Starred values were filed as active, the others as inactive; ? = inconclusive; [ ] = remark or other dose. On the % scale 0 is the no-effect control and ±100 the full control effect; potency means the concentration at half of the fitted maximal effect. Some of the compounds tested; the hit share may differ from the screen's.

nr	structure	hNpr1 antagonist
1	CC1(COc2ccc3[nH]ccc3c2)COc2ccc(C(=O)N3CCOCC3)cc2N1 (stereo unspecified)	-10%[70.6 µM]
2	CCn1cc(CN2CCCC(c3nc(-c4cccnc4)no3)CCNC(=O)CC2)c(C)n1 (stereo unspecified)	1%
3	Cc1oc(-c2cccc(Oc3ccccc3)c2)nc1CN(C)Cc1cnc(N)nc1	-1%
4	CCOc1ccc(NC(=O)Cn2c(-c3ccc(F)cc3)nc(C)cc2=O)cc1	-17%
5	CNC(=O)c1cc(S(=O)(=O)N[C@@H]2COCC[C@H]2O)ccc1OC	9%
6	O=C(c1ccc(Cn2ccn3nc4c(c3c2=O)CCCC4)cc1)N1CCN(c2ccccn2)CC1	?
7	O=C(C1CCOCC1)N1CCC(Oc2cccc(F)c2)C1 (stereo unspecified)	-15%
8	COCCC(=O)N1CCCOCCNC(=O)[C@@H]2CCC[C@@H]21	0%
9	O=C(NCCCN1CCOCC1)c1c(OCC2CC2)cc(=O)n2c1CCCCC2	5%
10	Cc1ccc(C(=O)N2CCCN(C(=O)C3CC3)c3ccccc32)cn1	-7%
11	Cc1ccc(NC(=O)N2C[C@@H](F)C[C@H]2C(=O)N2CCCCC2)c(C)c1	5%
12	Cc1ccc(C2=NC3(CCN(C(=O)Cc4ccc(Cl)cc4)CC3)ON2)cc1	-3%
13	CC(C)c1nnc(C2CN(C(=O)c3ccoc3)CC23CCOCC3)o1 (stereo unspecified)	-12%
14	Cc1noc(C)c1-c1cc2c(cc(C)n2C)c(-c2cccnc2)n1	4%[70.6 µM]
15	Cn1cnc(S(=O)(=O)N2CCC3(CC2)CC(CC(=O)N2CCCC2)CCO3)c1 (stereo unspecified)	6%
16	COc1ccc(C(=O)Nc2ccc([C@H]3OCC(=O)N(Cc4ccncc4)[C@@H]3CO)cc2)cc1OC	0%
17	NCCO[C@H]1C[C@@H](O)C12CCN(Cc1ccc(OC(F)F)cc1)CC2	11%
18	CC1=NS(=O)(=O)N(Cc2ccccc2)C=C1C(=O)OCc1noc(-c2ccc(C)c(C)c2)n1	11µM*
19	CCCNC(=O)N1CCC(n2c(C)cnc2C2CC2)CC1	-4%
20	O=C(Nc1cccc(Cl)c1)C1CCN(C(=O)c2ncn3c2COC(c2ccc(F)cc2)C3)CC1 (stereo unspecified)	?
21	COc1cccc(C(=O)N2CCC(N3C[C@H](O)C[C@H]3C(=O)NC3CC3)CC2)c1	1%
22	CC[C@@]1(C(=O)O)C[C@H](C(=O)NCc2ccncc2)[C@H](c2ccc(OC)cc2)N1C	2%
23	O=C(c1cccnc1)N1CC[C@H](c2nc3ccccc3s2)C1	0%[70.6 µM]
24	Cn1cnnc1CC1CCN(C(=O)C2CCCC2)C1 (stereo unspecified)	-1%
25	CCOCCOC1CCN(C(=O)c2n[nH]c3ccccc23)CC1	3%
26	COc1ccccc1CNC[C@H]1O[C@H](Cc2cc(CN3CCOCC3)on2)CC[C@@H]1O	0%[70.6 µM]
27	c1cc2c(cc1CN1CCCCC1)CNCCO2	-13%
28	Cc1cc(=O)n(CC(=O)Nc2ccc(F)c(Cl)c2)c(N(C)Cc2ccccc2)n1	11µM*
29	O=C(NCCCN1CCCc2ccccc21)C1CCCCC(=O)N1Cc1ccccc1 (stereo unspecified)	-15%
30	O=C(c1ccon1)N(CC1CCN(Cc2ccccc2F)CC1)CC1CCCO1 (stereo unspecified)	-3%
31	CNCC(=O)N[C@H]1CCN2C(=O)c3cc(-c4cc(Cl)ccc4OC)ccc3NC(=O)[C@@H]2C1	-3%
32	CCc1ccc(CNC(=O)c2cc3c(N4CCCC4)nc(C)cn3n2)cc1	13%
33	Cn1ccnc1C(=O)N1CCCCCCn2c(nnc2-c2ccc(F)cc2)CC1	-8%
34	O=C(c1nc(-c2cccnc2)c2cnccn12)N1CCOCC1	14%[70.6 µM]
35	CCn1nccc1C(=O)NCCC1CCN(C(=O)Nc2cc(F)cc(F)c2)CC1	5%
36	COc1ccc(C(=O)NC2CCN(c3cc(C(F)(F)F)nc(C)n3)CC2)cc1	?

Along the list, as entered above:
hNpr1 antagonist for nos. 21–27 → 1%, 2%, 0%[70.6 µM], -1%, 3%, 0%[70.6 µM], -13%

Later entries:
nr	structure	hNpr1 antagonist
37	CCNC(=O)NCCc1noc(-c2cccnc2)n1	0%
38	CCc1ccc(S(=O)(=O)N2CCC(n3cnnc3C)CC2)cc1	-1%
39	O=C1CCN(S(=O)(=O)c2ccccc2)CCCN(C(=O)c2c[nH]c3ccccc23)CCN1	-2%
40	C[C@H]1CCCN1C(=O)c1nnc(CNc2ccccc2Cl)n1-c1ccccc1	-29%[70.6 µM]
41	COCCCN1CC2(CCN(C(=O)C(=O)c3cccn3C)CC2)CC1=O	7%
42	CC(C)CCN1C(=O)N(CCCc2ccncc2)C(=O)C12CCN(CC1=CC[C@H]3C[C@@H]1C3(C)C)CC2	-9%
43	CN1C(=O)CCC2(CNC(=O)c3ccccc3)CCC=C12 (stereo unspecified)	5%
44	CN(C)S(=O)(=O)NCCC1CN(c2cnn(C)c(=O)c2)CCO1 (stereo unspecified)	2%
45	CN(C)C[C@@H]1CN(c2ccncn2)C[C@H]1NC(=O)c1cnco1	2%
46	Cn1c(Cn2cccn2)nnc1C1CC(NC(=O)c2cnco2)C1 (stereo unspecified)	-18%
47	CN1C(=O)CC(C(=O)O)C12CCN(C(=O)CCc1cccnc1)CC2 (stereo unspecified)	2%
48	Fc1ccc(Cc2noc(-c3nc(-c4ccc5c(c4)OCO5)no3)n2)cc1	-5%
49	Cc1nc(CCNC(=O)CC2COCCN2C(=O)c2ccsc2)no1 (stereo unspecified)	1%
50	O=C(C[C@H]1NC(=O)c2ccccc2NC1=O)Nc1cccc(-c2ncn[nH]2)c1	-1%
51	CC(=O)N1CC(CO)C2(CCN(C(=O)c3nccc4ccccc34)CC2)C1 (stereo unspecified)	4%
52	Cn1ccnc1CN1CCN(c2nccc(-c3cccnc3)n2)CC1	2%
53	CCCCC1CN(c2ccccc2OC)C(=O)CN1C(=O)c1cnn(C)c1 (stereo unspecified)	8%
54	COc1nc(C)c(C(=O)N2CCn3nc(CO)cc3C2)s1	4%
55	O=C1N(CCCc2ccccc2)CCCC1(O)CN1CCN(CCO)CC1 (stereo unspecified)	2%
56	COCc1noc(-c2ccc(NCCN3CCNC3=O)nc2)n1	7%
57	CC1(C(=O)NCc2ccncc2)CCCc2cnc(Nc3ccccc3)nc21 (stereo unspecified)	0%[70.6 µM]
58	COc1ccc(S(=O)(=O)N2CCN(CC3(O)CCNC3)CC2)cc1 (stereo unspecified)	-2%
59	Cc1ccc(C2Cn3nnc(C(=O)N4CCC(C(=O)NCc5cccc(C)c5)CC4)c3CO2)cc1 (stereo unspecified)	-1%
60	O=C(Cc1cccnc1)NCC(=O)N1CCCCCNC(=O)CC1c1ccccc1 (stereo unspecified)	-3%
61	COCCC(=O)N1CCC2(CC1)CN(C(C)=O)CC2COC (stereo unspecified)	-10%
62	COCc1cc(CC2(NCc3ccc(CO)o3)COC2)no1	13%[70.6 µM]
63	CCn1cc(S(=O)(=O)NCC(=O)N2CCCCCNC(=O)CC2c2ccccc2)cn1 (stereo unspecified)	0%
64	CC(=O)c1cc(C(=O)N2CCC(O)(c3ccc(C)cn3)CC2)c(=O)[nH]c1C	4%
65	CC(C)NC(=O)C[C@@H]1O[C@H](CNC(=O)c2cccc(F)c2)[C@@H](O)[C@H]1O	2%[70.6 µM]
66	COc1ccc2ccc(OCc3nc(C(=O)N(C)CC(C)O)co3)cc2c1 (stereo unspecified)	?
67	CCc1cccc2c(C(CC(=O)NCCC(C)C)c3cccc(OC)c3OC)c[nH]c12 (stereo unspecified)	-1%
68	CNC(=O)[C@@H]1CN(C(=O)c2ccc(Cl)s2)C[C@H]1c1nc(COC)no1	-2%
69	CNC(=O)[C@@H](C1CCCCC1)N1CCC[C@H]1C(=O)N1CCN(CCOC)CC1	1%
70	CNC(=O)N1CCC(C2CCN(C(=O)c3cnccn3)C2)CC1 (stereo unspecified)	12%
71	Cc1ccc(NC(=O)c2cc(-c3ccc[nH]3)n[nH]2)cc1	-1%
72	CO[C@@H]1CCOC[C@H]1NC(=O)c1ccccc1OC(F)(F)C(F)F	-10%
73	O=C(NCc1ccc(F)cc1)c1nc(-c2ccc(F)cc2)c2cnccn12	4%
74	O=C(CC1C(=O)NCCN1Cc1cccc(Oc2ccccc2)c1)NCc1ccco1 (stereo unspecified)	6%
75	CC(=O)NC1(C)CCN(Cc2cnc(-c3cccc(C(F)(F)F)c3)s2)CC1	?
76	CCc1noc(CC2CCOC3(CCN(S(=O)(=O)c4cccc(Cl)c4)CC3)C2)n1 (stereo unspecified)	10µM*
77	CCN1CC[C@H]2COC(=O)N2c2ccc(OC)cc2C1	-1%[70.6 µM]
78	O=C(C[C@@H]1CCNC[C@@H]1Cc1cc(-c2ccc(F)cc2)on1)NCCN1CCOCC1	0%[70.6 µM]
79	CC(=O)N1CCC(NC2(Cc3cc(-c4cccc(O)c4)on3)COC2)CC1	4%[70.6 µM]
80	COc1ccccc1C(=O)N1CC[C@@H]2CN(S(C)(=O)=O)[C@@H]2C1	-5%
81	O=C1Cc2c(-c3ccc(N4CCOCC4)cc3)n[nH]c2CN1CCc1ccncc1	-10%[70.6 µM]
82	Cc1ccc(S(=O)(=O)N2CCCC(Cn3cnc4cccnc43)C2)cc1C (stereo unspecified)	?
83	COc1cccc(NC(=O)N2CC[C@H]3CC(=O)N(c4ccccc4)CC[C@H]3C2)c1	5%[70.6 µM]
84	CC(=O)NC1CCCc2c1[nH]c1ccc(Cl)cc21 (stereo unspecified)	-1%
85	COc1ccc(C(=O)NC(C(=O)NC(C)C(C)C)C2CCN(C(=O)CC(C)(C)C)CC2)cc1 (stereo unspecified)	3%
86	COc1ccccc1CN1CCC(CN(CC(C)C)C(=O)C2CCCN2)CC1 (stereo unspecified)	8%
87	Cc1cc2nc3n(c(=O)c2n1CC(=O)Nc1ccccc1C(C)C)CCCCC3	-13%
88	O=C(NCc1cnccn1)c1nc(-c2ccccc2)cc2[nH]ccc12	7%[70.6 µM]
89	CC(C)NC(=O)NC[C@H]1Cn2c(-c3ccc4c(c3)OCO4)cnc2CO1	2%[70.6 µM]
90	O=C(NC[C@H]1Cn2c(-c3ccc(F)cc3)cnc2CO1)C1CC1	-1%[70.6 µM]
91	CC(C)NC(=O)N(C1CC1)C1CCOC2(CCN(C(=O)CCc3ccccc3)CC2)C1 (stereo unspecified)	-8%
92	COc1ccc(-c2cc(N3CCC(NC(=O)Cc4ccccc4Cl)CC3)n[nH]2)cc1	0%
93	O=C1NCCCCCCN(C(=O)Nc2ccc3c(c2)OCCO3)[C@H]2CCC[C@@H]12	?
94	O=C(NCCN1CCCCC1)C1(CCO)CCN(c2ncccn2)C1 (stereo unspecified)	-5%
95	Cc1cc(C(F)(F)F)nn1CC(=O)N1CC[C@H](CO)[C@H](NC(=O)C2CC2)C1	4%
96	COCC1CN(C(=O)c2ccc(C#N)cc2)CC12CCOCC2 (stereo unspecified)	3%

4 structures out of the list, sorted by heavy-atom count, falling.
nr	structure	hNpr1 antagonist
85	COc1ccc(C(=O)NC(C(=O)NC(C)C(C)C)C2CCN(C(=O)CC(C)(C)C)CC2)cc1 (stereo unspecified)	3%
91	CC(C)NC(=O)N(C1CC1)C1CCOC2(CCN(C(=O)CCc3ccccc3)CC2)C1 (stereo unspecified)	-8%
86	COc1ccccc1CN1CCC(CN(CC(C)C)C(=O)C2CCCN2)CC1 (stereo unspecified)	8%
94	O=C(NCCN1CCCCC1)C1(CCO)CCN(c2ncccn2)C1 (stereo unspecified)	-5%

The list goes on.
nr	structure	hNpr1 antagonist
97	Cc1ccc(C(=O)Nc2cnc(-c3ccc(Cl)cc3)nc2)s1	-9%
98	O=C(CC(c1ccccc1)c1ccc(Cl)cc1)N1CCOCC1 (stereo unspecified)	-19%
99	O=C(C[C@@H]1CCNC[C@@H]1Cc1cc(-c2ccccc2)on1)N1CCc2ccccc2C1	-11%[70.6 µM]
100	CC(C)N1C[C@H](O)C[C@H]1c1nnc2n1CCN(C(=O)c1ccccc1)CC2	-3%
101	CCOc1ccc(NC(=O)Cn2c(N3CCN(c4ccccc4)CC3)nc(C)cc2=O)cc1	-3%
102	CN(Cc1cccnc1)c1nc2c(c(=O)[nH]1)CCN(Cc1ccc(F)cc1F)CC2	-25%
103	CCCCN1C(=O)[C@@H]2C[C@@H](O)CN2C2(CN(C3CCOCC3)C2)C1=O	-1%[70.6 µM]
104	O=C(NC1CCS(=O)(=O)C1)C1CCN(c2cnn(Cc3ccccc3)c(=O)c2)C1 (stereo unspecified)	11%
105	CCCS(=O)(=O)NCCc1ncc(C)n1CC1CC1	0%
106	NC(=O)NCC(=O)N1CCc2cc(S(=O)(=O)NCc3cccs3)ccc2C1	2%
107	CN(Cc1ccccc1)Cc1nc2c(n1Cc1ccccc1)C(=O)N(Cc1ccccc1C#N)CCN2	-18%
108	Cc1nc2ccc(C(=O)Nc3ccc4c(c3)C(=O)N3CCC[C@H]3C(=O)N4)cc2s1	-3%
109	Cn1cc(CN2CCCC(CCc3cccc(C(F)(F)F)c3)C2)cn1 (stereo unspecified)	1%
110	COc1cc(CNC(=O)[C@H]2CCC[C@H]2NC(=O)c2ccncc2)cc(OC)c1	0%
111	CC(C)[C@H]1CN(CCS(C)(=O)=O)C[C@@H]1NC(=O)c1ccco1	2%
112	COCCCNC(=O)Cn1nc2c(cc1=O)CCCC2	2%
113	COC(=O)[C@@H]1Cc2c([nH]c3ccccc23)[C@H]2C[C@@H](NCCO)C[C@@H](c3ccccc3)N21	-16%[70.6 µM]
114	CNC(=O)[C@@H]1C[C@H](Oc2cccnc2)CN1C(=O)c1cc(-c2ccc(F)cc2)n[nH]1	0%
115	COCCCNC(=O)C1(CCO)CCN(c2ncccn2)C1 (stereo unspecified)	0%

Screening results from PubChem BioAssay.
